# GIV-Gai inh: GIV-Galpha-i interaction inhibition. Galpha-i3/FITC-GIV peptide fluorescence polarization, 90 min; stronger effect = lower value; scaled: aluminum fluoride 0%, vehicle 100%. percent of control (FP), % (no concentration beside the values). actives 0.42% (n = 210,000). AID 1224905;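 active = replicate mean at 85% of control or lower, very high polarization wells dropped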;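 note: wells of about 15 µL received 100 nL stock; the first replicate is given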
# Target sequence (P08753 whole entry, looked up): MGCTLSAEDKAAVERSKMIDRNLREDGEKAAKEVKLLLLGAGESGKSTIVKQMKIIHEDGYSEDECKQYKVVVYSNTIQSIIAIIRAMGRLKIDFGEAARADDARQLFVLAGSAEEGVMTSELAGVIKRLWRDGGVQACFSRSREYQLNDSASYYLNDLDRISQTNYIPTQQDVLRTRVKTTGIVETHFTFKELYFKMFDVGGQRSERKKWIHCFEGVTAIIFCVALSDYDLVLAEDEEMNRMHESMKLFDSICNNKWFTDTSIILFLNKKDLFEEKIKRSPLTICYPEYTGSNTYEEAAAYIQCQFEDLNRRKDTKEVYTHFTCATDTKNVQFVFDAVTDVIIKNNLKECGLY
# * marks the source's active call; other numbers are inactive results. These rows are one share of the data. The share of hits here may be higher or lower than overall.
structure | GIV-Gai inh
CC(C)(NC(=O)C1CCC1)c1nc2c(c(C(N)=O)n1)OCCO2 | 103
CCc1[nH]nc2c1C1(C(=O)Nc3ccccc31)C(C#N)=C(N)O2 (configuration not stated) | 110
CCCCN(C)C(=O)C1CCN(C(=O)c2cccnc2-c2ccccc2C)CC1 | 99
Cc1nn(-c2ccc3nnc(C)n3n2)c(C)c1CCC(=O)NCCN1CCOCC1 | 99
COCCNC(=O)c1cnc2c(C)cccn2c1=O | 102
O=c1cc(-c2ccccc2)nc2n1CCN2CCCN1CCOCC1 | 109
O=C(CN1CCOCC1)N1c2ccccc2CCc2ccccc21 | 110
CCOc1ccccc1NC(=O)c1cc([N+](=O)[O-])ccc1N1CCCCCC1 | 105
COc1ccccc1-c1cc(C(=O)N2CCN(c3cc(=O)n(C)c(=O)n3C)CC2)[nH]n1 | 107
CCOC(=O)c1c(NC(=O)C(C)Sc2nnc(CNC(=O)c3ccco3)n2C2CCCCC2)sc2c1CCCC2 (configuration not stated) | 107
O=C(CSc1nnc2c3ccccc3nc(-c3ccc(F)cc3)n12)N1CCOCC1 | 108
CC(C)(C)c1ccc(C(=O)Nc2cc(C(=O)NC3CCCCNC3=O)ccc2N2CC3CC(C2)c2cccc(=O)n2C3)cc1 (configuration not stated) | 106
Cc1nn(-c2ccc3nnc(C)n3n2)c2c1C(c1ccc(OCc3ccccc3F)cc1)CC(=O)N2 (configuration not stated) | 100
Cc1cc(C2CCCN2C(=O)c2cnn3c(C(F)F)cc(-c4ccccc4)nc23)no1 (configuration not stated) | 107
Cc1cccc(NC2=NC(=S)N(c3ccccc3)C23CCCC3)c1 | 102
O=C(CSc1nc2ccccc2c(=O)n1CC1CCC(C(=O)NCCc2ccccc2)CC1)NCc1ccco1 (configuration not stated) | 106
O=C(NCc1ccco1)C1CCN(c2cncnc2N2CCOCC2)CC1 | 110
COc1cccc(N2C(=O)/C(=C/c3ccc(-c4cc(Cl)ccc4Cl)o3)C=C2c2ccccc2)c1 | 120
COc1ccc(CCNC(=O)c2ccc3nc(-c4ccccc4)c(-c4ccccc4)nc3c2)cc1OC | 121
CCOC(CNC(=O)c1cnn2c(C)c(Cc3cccc(Br)c3)c(C)nc12)OCC | 110
COc1ccccc1CNC(=O)CSc1nc2ccccc2n1S(=O)(=O)c1cccc([N+](=O)[O-])c1 | 119
COc1ccc(N2C(=O)C3C4c5ccccc5C(C)(c5ccccc54)C3C2=O)c([N+](=O)[O-])c1 (configuration not stated) | 120
COc1ccc(N2CCN(S(=O)(=O)c3ccc(-c4cnc(C5CC5)o4)s3)CC2)cc1 | 99
O=C1c2ccccc2-c2onc3c(N4CCCC4)cc(Nc4ccc(Cl)cc4)c1c23 | 114
O=C(CSc1nc2sc3c(c2c(=O)n1-c1ccccc1)CCCC3)NCCOCCO | 98
CC(C)CCOc1ccc2c(c1)C(=O)c1cc(OCCC(C)C)ccc1-2 | 111
COc1ccc(Cn2nc3c(S(=O)(=O)N4CCOCC4)cccn3c2=O)cc1 | 103
Cc1c(Cl)cccc1N1COc2ccc3c(C)cc(=O)oc3c2C1 | 107
CCCCN(CCCC)Cc1nc2c(c(=O)[nH]1)C1(CCCC1)Cc1ccccc1-2 | 108
CCC(CC)C(=O)N1CCN(C(=O)c2cc3cc(Br)ccc3[nH]2)CC1 | 99
Cn1c(=O)c2nc(S(=O)(=O)CCC(=O)O)n(Cc3ccccc3)c2n(C)c1=O | 102
O=C(c1ccc2c(c1)[nH]c(=S)n1c3ccccc3nc21)N1CCN(c2cccc(Cl)c2)CC1 | 106
COc1ccc(-c2noc(N3CCC(C(=O)NCCN4CCOCC4)CC3)n2)cc1OC | 102
c1ccc(Cc2nc(NCCCN3CCOCC3)c3c4c(sc3n2)CCCC4)cc1 | 108
Cc1ccc(-c2nccc(Oc3ccc(C(=O)NC(C)c4ccc(C)cc4)cc3)n2)cc1 (configuration not stated) | 104
O=C(NC1CCCC1)C1CC(=O)N(c2ccc3c(c2)CCN3C(=O)C2CC2)C1 (configuration not stated) | 106
O=C(c1cnc(N2CCCCC2)c2ccccc12)N1CCCc2ccccc21 | 108
O=C(c1nc(C2CC2)nc2c1OCCO2)N1CCCC1c1cccnc1 (configuration not stated) | 102
O=C1N(CN2CCc3ccccc3C2)c2ccccc2C12OCC(CCl)O2 (configuration not stated) | 106
Cc1cc(C)c(S(=O)(=O)Nc2cccc(C(=O)N3CCCC(C(=O)NCCC(C)C)C3)c2)c(C)c1 (configuration not stated) | 106
O=c1n(Cc2cccc(F)c2)nc2c(S(=O)(=O)N3CCOCC3)cccn12 | 100
Cc1ccccc1-c1cc2n(C)c(C)c(CCC(=O)NC3CCCCC3)c(=O)n2n1 | 110
Cc1ccc(C(=O)NC2(C(=O)Nc3c(C)cccc3C)CCC(C(C)(C)C)CC2)cc1 (configuration not stated) | 112
CCc1ccccc1-n1c(SCc2cccc(F)c2)nc2[nH]ncc2c1=O | 99
CC(C)(C)c1ccc(-c2nc(NCc3cccnc3)c3ccccc3n2)cc1 | 113
Cn1cnc2c(C(=O)NC3CCCCC3)nn(-c3ccc(Cl)cc3)c2c1=O | 106
CCOc1ccc(-c2csc3c(=O)n(C)cnc23)cc1OCC | 104
CCc1ccc(NC(=O)CSC2=C(C#N)C(c3ccc(Cl)cc3Cl)CC(=O)N2)cc1 (configuration not stated) | 104
COC(=O)Cc1nc(N2CCN(c3ccc([N+](=O)[O-])cc3)CC2)c2c3c(sc2n1)CCCC3 | 108
FC(F)Oc1ccc(C2C=C(c3ccccc3)Nc3nc4ccccc4n32)cc1 (configuration not stated) | 114
CCCc1ccc(S(=O)(=O)N2CCC3(CC2)NCCN=C3NCc2ccccc2)cc1 | 108
CCCS(=O)(=O)N1CCCC(c2nc(CNC(=O)C(C)C)cs2)C1 (configuration not stated) | 98
C=CCSc1c(C(C)C)cnc2c1c(=O)n(C)c(=O)n2C | 111
O=C(C1CCN(c2cncnc2N2CCCCC2)CC1)N1CCCC1 | 102
CC(C)CCOc1ccc(NC(=O)C2OC3OC(C)(C)OC3C3OC(C)(C)OC23)cc1 (configuration not stated) | 106
CCOc1ccc(C2Nc3c(C)cc(C)cc3[C@H]3OCCC[C@@H]23)cc1OC (some centres not stated) | 101
NC(=O)C1CCN(C(=O)c2ccc3c(=O)n(C4CCCCC4)c(SCC(=O)N4CCCc5ccccc54)nc3c2)CC1 | 101
CCS(=O)(=O)N1CCC(n2cnc3ccc(Cl)cc3c2=O)CC1 | 102
O=S(=O)(c1cc(-c2nnc(C3CCC3)o2)co1)N1CCc2ccccc2C1 | 100
CNC(=O)c1c(NC(=O)c2ccc(S(=O)(=O)N3CC(C)OC(C)C3)cc2)sc2c1CCC2 (configuration not stated) | 106

# Sorted by value in GIV-Gai inh (rising): 6 from the list above
structure | GIV-Gai inh
CCCS(=O)(=O)N1CCCC(c2nc(CNC(=O)C(C)C)cs2)C1 (configuration not stated) | 98
O=S(=O)(c1cc(-c2nnc(C3CCC3)o2)co1)N1CCc2ccccc2C1 | 100
CCOc1ccc(C2Nc3c(C)cc(C)cc3[C@H]3OCCC[C@@H]23)cc1OC (some centres not stated) | 101
CCS(=O)(=O)N1CCC(n2cnc3ccc(Cl)cc3c2=O)CC1 | 102
CC(C)CCOc1ccc(NC(=O)C2OC3OC(C)(C)OC3C3OC(C)(C)OC23)cc1 (configuration not stated) | 106
CCCc1ccc(S(=O)(=O)N2CCC3(CC2)NCCN=C3NCc2ccccc2)cc1 | 108

# Continued.
structure | GIV-Gai inh
Cc1ccc(-c2nc(CN3CCCC(C(=O)Nc4cc(C)ccc4O)C3)no2)cc1 (configuration not stated) | 105
CCOCCOC(=O)C1=C(C)NC(=O)CC1c1cccc(Cl)c1 (configuration not stated) | 100
Cc1sc(C)c(S(=O)(=O)NCc2ccc(N(C)C)cc2)c1-c1cc(C(F)(F)F)on1 | 108
CCOc1ccc(S(=O)(=O)NCCOc2ccc(-c3ccccc3)nn2)cc1 | 100
O=S(=O)(NCc1ccc(Cl)cc1)c1cc(-c2noc(C3CC3)n2)cs1 | 99
COC(=O)C1=CN(Cc2ccc(OC)c(OC)c2)C=C(C(=O)OC)C1c1cccc(Oc2ccccc2)c1 | 100
Cc1cc(C2CCCN2Cc2cccc(OCc3ccccc3)c2)on1 (configuration not stated) | 105
COc1ccc(I)cc1C1Nc2ccc(C)cc2[C@H]2OCC[C@@H]12 (some centres not stated) | 99
CCCOc1ccc(C(=O)N/N=C/c2cn(-c3ccccc3)nc2-c2ccccc2)cc1 | 103
O=C(CCc1ccccc1)NC(c1ccc2c(c1)OCO2)c1ccc2cccnc2c1O (configuration not stated) | 108
N#CC1=C(N)Oc2n[nH]c(-c3ccccc3)c2C12C(=O)Nc1ccc(Br)cc12 (configuration not stated) | 105
CCOC(=O)c1c(NC(=O)C(C)Sc2nnc(CNC(=O)c3cccc(F)c3)n2CCc2ccccc2)sc2c1CCC2 (configuration not stated) | 117
Cc1cccc(N2C(=O)C(=O)/C(=C(\O)c3ccc(Cl)cc3)C2c2ccc(Br)cc2)c1 (configuration not stated) | 102
Cc1ccccc1NC(=O)CSC1=C(C#N)C(c2ccc(C(C)C)cc2)CC(=O)N1 (configuration not stated) | 103
O=C(CCCn1c(=S)[nH]c2ccc(Br)cc2c1=O)N1CCN(c2cccc(Cl)c2)CC1 | 101
Cc1ccc(-c2nc(Cn3nnc(-c4nc(-c5ccccc5C)no4)c3C)c(C)o2)cc1 | 110
Cn1nccc1C(=O)N1CCN(c2cc(=O)n(C)c(=O)n2C)CC1 | 104
O=C(Nc1ccc(N2CCC(c3ccccc3)C2)c(C(=O)O)c1)c1ccc(F)cc1 (configuration not stated) | 107
O=c1n(Cc2ccccc2F)nc2c(S(=O)(=O)N3CCc4ccccc4C3)cccn12 | 111
O=C(O)c1ccc2c(=O)n3c4ccc(Cl)cc4nc3c3ccc(C(=O)O)c1c23 | 108
Clc1ccc(C2N(c3ccccc3)CCN2c2ccccc2)cc1 | 104
CC(C)CCNS(=O)(=O)c1cc(-c2nc(C(C)(C)C)cs2)cs1 | 101
O=C(CCn1c(C2CCCCC2)nc2ccccc21)N1CCN(Cc2noc3ccccc23)CC1 | 110
CCCCCNC(=O)c1nnn(-c2ccccc2)c1-c1ccncc1 | 103
CCOC(=O)CSc1nc2cc(C(=O)OC)ccc2c2nc3ccccc3n12 | 104
CC(=O)Nc1ccc2c(c1)OCCO2 | 119
COc1ccc(N2C(SC)=NC(=Nc3ccccc3C)C23CCC(C(C)(C)C)CC3)cc1 (configuration not stated) | 106
CCOc1cc(C2C(C#N)=C(N)Oc3n[nH]c(-c4ccc(OC)cc4)c32)cc([N+](=O)[O-])c1O (configuration not stated) | 108
Cc1c(C(=O)NCc2ccccc2)c(C)n2cnn(CC(=O)NC3CCCCC3)c(=O)c12 | 103
Cc1ccc(CNC(=O)C2(C)CCCN(C(=O)Nc3ccc(Br)cc3F)C2)cc1 (configuration not stated) | 106
CCC(=O)Nc1cccnc1-c1ccc(C(=O)Nc2ccc(Cl)cc2)cc1 | 105
O=S(=O)(c1cn(Cc2noc(Cc3ccc(F)cc3)n2)cn1)N1CCCCC1 | 110
COC(=O)c1ccccc1NC(=O)CSc1nnc2[nH]c(=O)c(C)nn12 | 99
Cc1cc(N2CCCC2)nc(Nc2ccc(NC(=O)C3CCCC3)cc2)n1 | 104
CC(C)c1ccc(NC(=O)CSc2nc3ccc(NC(=O)CSc4nnnn4C)cc3s2)cc1 | 107
CNC(=O)C1CCCN(c2nc3ncn(CC(=O)NC(C)C)c(=O)c3s2)C1 (configuration not stated) | 100

# Quoted from the listing.
# CNC(=O)C1CCCN(c2nc3ncn(CC(=O)NC(C)C)c(=O)c3s2)C1 (configuration not stated) @ GIV-Gai inh: 100
# CC(=O)Nc1ccc2c(c1)OCCO2 @ GIV-Gai inh: 119
# CCOC(=O)CSc1nc2cc(C(=O)OC)ccc2c2nc3ccccc3n12 @ GIV-Gai inh: 104
# Cc1cc(N2CCCC2)nc(Nc2ccc(NC(=O)C3CCCC3)cc2)n1 @ GIV-Gai inh: 104

# Next records:
structure | GIV-Gai inh
Cc1ccc(S(=O)(=O)/N=C2/NC(=O)/C(=C/c3ccncc3)S2)cc1 | 98
CCc1cccc(NC(=O)Cn2nc3c(Sc4ccccc4)nccn3c2=O)c1 | 102
Cc1ccc(-c2nn3c(=O)cc(CN4CCN(C(=O)Nc5ccc(C)c(C)c5)CC4)nc3s2)cc1 | 98
CCN1C(=O)NC(c2cc(Br)c(O)c(OC)c2)C(C(=O)OC(C)C)=C1C (configuration not stated) | 111
CCn1c(CCc2ccc(NS(=O)(=O)CC)cc2)nc2ccccc21 | 99
N=C1/C(=C/c2ccc(OCc3ccccc3F)cc2)C(=O)N=C2SC=C(c3ccccc3)N12 | 101
O=c1c2ccc(N3CCCCC3)c3cccc(c32)c2nc3ccccc3n12 | 104
O=C(COC(=O)c1cc2c3c(c1)C1C=CCC1CN3CC1CC=CC21)c1ccc([N+](=O)[O-])cc1 (configuration not stated) | 107
Cc1ccc2c(c1)sc(/C=C1\Sc3ccccc3N1CCCS(=O)(=O)[O-])[n+]2C | 114
Cn1nc(COCc2ccc(F)cc2Cl)c2c1CCN(S(=O)(=O)Cc1ccccc1)C2 | 110
COC(=O)C1=CN(Cc2ccc(OC)c(OC)c2)C=C(C(=O)OC)C1c1cc(Br)c(O)c(OC)c1 | 99
Cc1cccc(-c2nc3ccccc3c3nnc(SCC(=O)NC4CCCC4)n23)c1 | 104

# Continued, overlapping the part above by three compounds.
structure | GIV-Gai inh
Cn1nc(COCc2ccc(F)cc2Cl)c2c1CCN(S(=O)(=O)Cc1ccccc1)C2 | 110
COC(=O)C1=CN(Cc2ccc(OC)c(OC)c2)C=C(C(=O)OC)C1c1cc(Br)c(O)c(OC)c1 | 99
Cc1cccc(-c2nc3ccccc3c3nnc(SCC(=O)NC4CCCC4)n23)c1 | 104
Cc1ccccc1N1CC(O)(c2cccc([N+](=O)[O-])c2)[N+]2=C1SCCC2 (configuration not stated) | 103
CCOc1ccc2ccccc2c1/C=C1\N=C(c2cc([N+](=O)[O-])cc([N+](=O)[O-])c2)OC1=O | 105
COc1ccc(-c2noc(-c3nn(-c4ccc(OC)cc4)ccc3=O)n2)cc1 | 100
O=C1CC(c2nc(Cn3cnc(S(=O)(=O)N4CCCCC4)c3)no2)CN1c1ccccc1 (configuration not stated) | 102

# Compound activity deposited in PubChem BioAssay by ICCB-Longwood Screening Facility, Harvard Medical School.
